Screening data from PubChem.
Yeast UUG start: yeast start codon fidelity modulation; S. cerevisiae UUG-firefly luciferase reporter, luminescence/redox ratio; activity score, % at 18.7 µM; 0.13% of 350,000 active; AID 602363;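 active means replicate mean at a twofold rise or more, about +100% in these data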;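 further: firefly luciferase made from a UUG start codon reports start codon fidelity; reporter light over untreated wells divided by growth signal over untreated wells; some hits fall short of that in this replicate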
Env fusion inh: blocks HIV Env-driven cell-cell fusion. HeLa-JRFL Env/CEM21 cell fusion, luciferase. inhibition, % at 12.3 µM. 1.1% of 360,000 active. AID 651610;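 active means mean replicate inhibition score of at least 50 and every replicate individually at or above 50; inconclusive means only one of the two criteria met; inactive means mean below 50 and not all replicates reaching 50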;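 further: 0% = plate neutral controls and 100% = maraviroc near 300 nM; one replicate is shown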
The depositor's hits bear a star; ? = inconclusive; [ ] = another dose, or the depositor's remark. An excerpt. The share of hits here may be higher or lower than overall.

Yeast UUG start,Env fusion inh,compound
0.4,24.4[16.7 µM],C[C@@H]1CN([C@@H](C)CO)C(=O)Cc2cc(NS(=O)(=O)c3cccs3)ccc2O[C@@H]1CN(C)S(C)(=O)=O
-14.1,17.0[16.7 µM],CC(C)NC(=O)N(C)C[C@H]1Oc2ccc(NS(=O)(=O)c3cn(C)cn3)cc2C(=O)N([C@H](C)CO)C[C@H]1C
14.4,-30.2[16.7 µM],C[C@@H]1CCCCO[C@H](CN(C)Cc2ccc(Cl)c(Cl)c2)[C@@H](C)CN([C@@H](C)CO)C(=O)c2cc(NS(C)(=O)=O)ccc2O1
-11.3,8.7[16.7 µM],C[C@@H]1CN([C@@H](C)CO)C(=O)c2cc(C#Cc3ccccc3F)cnc2O[C@H]1CN(C)C(=O)Cc1ccccc1
0.7,24.1[16.7 µM],C[C@H](CO)N1C[C@H](C)[C@@H](CN(C)S(=O)(=O)c2cccc(F)c2)Oc2ncc(C#CC3CCCC3)cc2C1=O
-11.8,8.8[16.7 µM],CO[C@@H]1CN(C)C(=O)c2ccc(NC(=O)NC(C)C)cc2OC[C@H](C)N(CCC(F)(F)F)C[C@H]1C
-7.9,-27.2[16.7 µM],COc1cccc(CNC(=O)C[C@@H]2CC[C@H]3[C@H](COc4ccc(NC(C)=O)cc4C(=O)N3C)O2)c1
5.4,4.0[16.7 µM],CC(=O)N(C)C[C@H]1Oc2cc(C#CC(C)(C)O)ccc2S(=O)(=O)N([C@@H](C)CO)C[C@@H]1C
-5.5,-6.9[16.7 µM],COc1ccc(-c2cnc3c(c2)C(=O)N([C@H](C)CO)C[C@@H](C)[C@H](CN(C)C(=O)Cc2ccccn2)O3)cc1
-14.1,1.0[16.7 µM],C[C@H](CO)N1C[C@H](C)[C@H](CN(C)S(=O)(=O)c2ccc(F)cc2)Oc2ccc(NC(=O)Cc3cn(C)c4ccccc34)cc2C1=O
-14.9,22.0[16.7 µM],O=C(C[C@@H]1CC[C@@H](NS(=O)(=O)c2ccccc2)[C@@H](CO)O1)NCc1ccncn1
0.0,12.2[16.7 µM],CC(C)NC(=O)Nc1ccc2c(c1)CC(=O)N([C@@H](C)CO)C[C@H](C)[C@@H](CN(C)S(=O)(=O)c1cn(C)cn1)O2

Full records, quoted from the list. Order of values: Yeast UUG start | Env fusion inh
C[C@@H]1CCCCO[C@H](CN(C)Cc2ccc(Cl)c(Cl)c2)[C@@H](C)CN([C@@H](C)CO)C(=O)c2cc(NS(C)(=O)=O)ccc2O1 is listed with 14.4 | -30.2[16.7 µM]
COc1cccc(CNC(=O)C[C@@H]2CC[C@H]3[C@H](COc4ccc(NC(C)=O)cc4C(=O)N3C)O2)c1 is listed with -7.9 | -27.2[16.7 µM]
CO[C@@H]1CN(C)C(=O)c2ccc(NC(=O)NC(C)C)cc2OC[C@H](C)N(CCC(F)(F)F)C[C@H]1C is listed with -11.8 | 8.8[16.7 µM]
C[C@@H]1CN([C@@H](C)CO)C(=O)Cc2cc(NS(=O)(=O)c3cccs3)ccc2O[C@@H]1CN(C)S(C)(=O)=O is listed with 0.4 | 24.4[16.7 µM]

Additional entries follow:
Yeast UUG start,Env fusion inh,compound
0.6,1.5[16.7 µM],C[C@@H]1CN([C@H](C)CO)C(=O)c2cccc(NC(=O)c3nc4ccccc4s3)c2O[C@@H]1CN(C)S(=O)(=O)c1ccc(Cl)cc1
-6.8,-9.9[16.7 µM],C[C@H]1CN([C@@H](C)CO)C(=O)Cc2cc(NS(=O)(=O)c3cn(C)cn3)ccc2O[C@H]1CN(C)S(=O)(=O)c1cccs1
10.5,4.1[16.7 µM],CCS(=O)(=O)N[C@@H]1CC[C@H](CC(=O)NCc2ccc(Cl)cc2)O[C@@H]1CO
3.9,-2.1[16.7 µM],O=C(C[C@H]1C[C@@H]2c3cc(NC(=O)NC4CCCCC4)ccc3O[C@@H]2[C@@H](CO)O1)NCC(F)(F)F
19.6,-17.2[16.7 µM],C[C@@H]1CCCCO[C@H](CN(C)Cc2ccc3c(c2)OCO3)[C@H](C)CN([C@H](C)CO)C(=O)c2cc(NS(=O)(=O)c3ccc(F)cc3)ccc2O1
-10.1,-14.5[16.7 µM],Cc1noc(C)c1S(=O)(=O)N(C)C[C@@H]1OCCCC[C@@H](C)Oc2ccc(NC(=O)Nc3ccccc3)cc2C(=O)N([C@H](C)CO)C[C@@H]1C
33.9,64.9*[16.7 µM],Cc1noc(C)c1S(=O)(=O)N(C)C[C@@H]1Oc2ccc(NC(=O)Cc3ccccc3)cc2CC(=O)N([C@H](C)CO)C[C@@H]1C
-1.5,17.2[16.7 µM],Cc1ccc(S(=O)(=O)Nc2cccc3c2O[C@H](CN(C)Cc2ccc4c(c2)OCO4)[C@H](C)CN([C@H](C)CO)C3=O)cc1
31.6,6.3[16.7 µM],COCC(=O)N(C)C[C@@H]1Oc2cc(C#CCC3CCCC3)ccc2S(=O)(=O)N([C@@H](C)CO)C[C@@H]1C
24.5,-13.6[16.7 µM],COc1ccccc1S(=O)(=O)N[C@@H]1C=C[C@@H](CC(=O)NCc2cc(F)cc(F)c2)O[C@H]1CO
-6.1,8.7[16.7 µM],Cc1noc(C)c1S(=O)(=O)N(C)C[C@@H]1OCCCC[C@H](C)Oc2ccc(NC(=O)CCC(F)(F)F)cc2C(=O)N([C@H](C)CO)C[C@H]1C
25.7,3.3[16.7 µM],O=S(=O)(N[C@H]1CC[C@@H](CCn2cc(C3CC3)nn2)O[C@@H]1CO)c1ccc(Cl)cc1

Yeast UUG start,Env fusion inh,compound
-0.2,-27.2[16.7 µM],CC(C)NC(=O)N(C)C[C@@H]1Oc2ncc(-c3ccc(C(=O)N(C)C)cc3)cc2C(=O)N([C@H](C)CO)C[C@@H]1C
-19.5,-18.6[16.7 µM],C[C@@H]1CN([C@H](C)CO)C(=O)Cc2cc(NS(C)(=O)=O)ccc2O[C@@H]1CN(C)C(=O)Nc1ccc(C(F)(F)F)cc1
7.7,2.4[16.7 µM],C[C@@H]1CN([C@H](C)CO)S(=O)(=O)c2ccc(-c3ccccc3)cc2O[C@@H]1CN(C)S(C)(=O)=O
23.2,15.0[16.7 µM],COc1ccccc1C#Cc1ccc2c(c1)O[C@H](CN(C)Cc1ccncc1)[C@H](C)CN([C@@H](C)CO)S2(=O)=O
-5.5,-21.2[16.7 µM],C[C@H](CO)N1C[C@H](C)[C@H](CN(C)S(C)(=O)=O)OCCCC[C@H](C)Oc2ccc(NC(=O)Cc3ccccc3)cc2C1=O
4.2,19.2[16.7 µM],C[C@H]1CN([C@@H](C)CO)C(=O)Cc2cc(NC(=O)Nc3ccc4c(c3)OCO4)ccc2O[C@@H]1CN(C)C(=O)Nc1cccc2ccccc12
-12.2,-40.2[16.7 µM],Cc1ccc(S(=O)(=O)Nc2ccc3c(c2)C(=O)N([C@@H](C)CO)C[C@@H](C)[C@H](CN(C)S(=O)(=O)c2cccs2)OCCCC[C@H](C)O3)cc1
16.1,-20.6[16.7 µM],O=C(Cc1ccccc1)N[C@H]1CC[C@@H](CC(=O)N2CCOCC2)O[C@@H]1CO
-8.6,?,C[C@H](CO)N1C[C@H](C)[C@@H](CN(C)Cc2ccccn2)Oc2cc(-c3cccc(C#N)c3)ccc2S1(=O)=O
-10.0,-6.8[16.7 µM],CCC(=O)Nc1ccc2c(c1)OC[C@H](C)N(C(=O)NC(C)C)C[C@@H](C)[C@@H](OC)CN(C)C2=O
-11.0,-0.9[16.7 µM],C[C@@H]1CCCCO[C@@H](CN(C)C(=O)Nc2ccccc2)[C@H](C)CN([C@@H](C)CO)C(=O)c2cc(NC(=O)NC3CCCCC3)ccc2O1
-10.9,-10.2[16.7 µM],Cc1ccc(S(=O)(=O)N[C@@H]2CC[C@@H](CCNC(=O)Cc3ccccn3)O[C@@H]2CO)cc1

Yeast UUG start,Env fusion inh,compound
5.1,-14.9[16.7 µM],C[C@@H]1CN([C@@H](C)CO)C(=O)c2cc(NC(=O)C3CCCCC3)ccc2O[C@@H](C)CCCCO[C@H]1CN(C)C(=O)C1CCCCC1
7.9,13.9[16.7 µM],Cc1ccc(S(=O)(=O)N(C)C[C@H]2Oc3c(NC(=O)Nc4ccccc4)cccc3C(=O)N([C@H](C)CO)C[C@@H]2C)cc1
-0.2,7.1[16.7 µM],CO[C@@H]1CN(C)C(=O)c2cc(NC(C)=O)ccc2OC[C@@H](C)N(Cc2cccc(F)c2)C[C@H]1C
-5.5,-40.7[16.7 µM],C[C@H]1CN([C@@H](C)CO)C(=O)c2cccc(NC(=O)C3CCCCC3)c2O[C@H]1CN(C)CC1CCCCC1
-19.2,9.9[16.7 µM],CC(=O)N[C@@H]1C=C[C@@H](CC(=O)NCC2CCCCC2)O[C@H]1CO
-8.4,0.2[16.7 µM],C[C@H](CO)N1C[C@H](C)[C@H](CN(C)C(=O)C2CCCCC2)Oc2ncc(-c3ccncc3)cc2C1=O
9.0,44.5[16.7 µM],C[C@@H]1CN([C@@H](C)CO)C(=O)c2cc(N(C)C)ccc2O[C@@H](C)CCCCO[C@H]1CN(C)S(=O)(=O)c1ccc(F)cc1
-13.5,-3.7[16.7 µM],CCCNC(=O)Nc1ccc2c(c1)C(=O)N(C)[C@@H]1CC[C@@H](CC(=O)NC)O[C@H]1CO2
-3.0,?,C[C@@H]1CN([C@@H](C)CO)C(=O)c2cccc(NS(=O)(=O)c3ccc(Cl)cc3)c2O[C@@H]1CN(C)Cc1ccc(C(F)(F)F)cc1
-14.8,23.9[16.7 µM],C/C=C/c1ccc2c(c1)O[C@H](CN(C)C(=O)c1ccccn1)[C@H](C)CN([C@H](C)CO)S2(=O)=O
13.0,-18.0[16.7 µM],Cc1ccc(S(=O)(=O)N(C)C[C@@H]2Oc3ncc(C#CC4(O)CCCC4)cc3C(=O)N([C@H](C)CO)C[C@H]2C)cc1
-11.4,-4.2[16.7 µM],C[C@H](CO)N1C[C@H](C)[C@H](CN(C)S(C)(=O)=O)OCCCC[C@H](C)Oc2ccc(NS(=O)(=O)c3cccs3)cc2C1=O

Yeast UUG start,Env fusion inh,compound
51.9,1.8[16.7 µM],Cc1ccc(S(=O)(=O)N(C)C[C@@H]2OCCCC[C@H](C)Oc3ccc(NS(C)(=O)=O)cc3C(=O)N([C@@H](C)CO)C[C@H]2C)cc1
-0.2,-2.0[16.7 µM],C[C@H]1CN([C@@H](C)CO)C(=O)Cc2cc(NC(=O)NC3CCCCC3)ccc2O[C@H]1CN(C)C(=O)Nc1ccc(C(F)(F)F)cc1
0.1,16.4[16.7 µM],C[C@@H]1CN([C@H](C)CO)C(=O)c2cc(NS(C)(=O)=O)ccc2O[C@@H](C)CCCCO[C@H]1CN(C)Cc1ccccc1
0.7,1.6[16.7 µM],COc1ccc(-c2cnc3c(c2)C(=O)N([C@H](C)CO)C[C@H](C)[C@@H](CN(C)C(=O)Cc2cccnc2)O3)cc1
-2.1,13.9[16.7 µM],CCNC(=O)C[C@H]1CC[C@H]2[C@H](COc3ccc(NC(=O)Nc4ccc(Cl)cc4)cc3C(=O)N2C)O1
5.1,-11.0[16.7 µM],C[C@@H]1CN([C@@H](C)CO)C(=O)CCCn2cc(nn2)CO[C@H]1CN(C)S(=O)(=O)c1ccc(Oc2ccccc2)cc1
8.9,-5.4[16.7 µM],Cc1noc(C)c1NC(=O)NCC[C@@H]1CC[C@H](NC(=O)Nc2cccc(F)c2)[C@@H](CO)O1
27.6,5.4[16.7 µM],C[C@@H]1CN([C@H](C)CO)S(=O)(=O)c2ccc(C#CCN(C)C)cc2O[C@@H]1CN(C)C
-1.9,-0.3[16.7 µM],CC(C)CC#Cc1cnc2c(c1)C(=O)N([C@@H](C)CO)C[C@@H](C)[C@H](CN(C)C(=O)CCN1CCCCC1)O2
0.6,22.5[16.7 µM],COc1cccc(-c2cn(CC[C@H]3CC[C@H](NC(=O)CN(C)C)[C@@H](CO)O3)nn2)c1
12.5,0.5[16.7 µM],C[C@H](CO)N1C[C@H](C)[C@H](CN(C)S(=O)(=O)c2ccc(F)cc2)Oc2c(NC(=O)Nc3ccc(C(F)(F)F)cc3)cccc2C1=O
-1.6,-14.5[16.7 µM],CN1C(=O)c2cc(NC(=O)NC3CCCC3)ccc2OC[C@@H]2O[C@@H](CC(=O)NC3CCC3)CC[C@@H]21

Yeast UUG start,Env fusion inh,compound
2.1,3.2[16.7 µM],CCC(=O)N1C[C@H](C)[C@H](OC)CN(C)C(=O)c2cc(NC(=O)C3CC3)ccc2OC[C@@H]1C
-8.7,?,COc1ccc([Si](C)(C)[C@H]2[C@H](CCO)O[C@@]3(C(=O)N(Cc4cccc(NC(=O)[C@H](C)O)c4)c4ccccc43)[C@@H]2C)cc1
13.8,16.1[16.7 µM],CCCN(C)C[C@@H]1Oc2cc(C#Cc3ccccc3)ccc2S(=O)(=O)N([C@H](C)CO)C[C@@H]1C
-12.6,1.9[16.7 µM],O=C(Nc1ccc2c(c1)[C@H]1C[C@@H](CC(=O)N3CCOCC3)O[C@@H](CO)[C@H]1O2)C1CCC1
-5.5,-19.6[16.7 µM],C[C@@H]1CN([C@@H](C)CO)C(=O)c2cc(NS(=O)(=O)c3ccccc3)ccc2O[C@H]1CN(C)Cc1ccc(-c2ccccc2)cc1
-3.3,28.6[16.7 µM],C[C@@H]1CN([C@@H](C)CO)S(=O)(=O)c2ccc(C3=CCCC3)cc2O[C@H]1CN(C)CC1CCOCC1
-4.1,-8.1[16.7 µM],O=C(N[C@@H]1CC[C@@H](CCNS(=O)(=O)Cc2ccccc2)O[C@H]1CO)c1ccccc1F
7.1,2.3[16.7 µM],C[C@H](CO)N1C[C@H](C)[C@H](CN(C)C(=O)Nc2cccc3ccccc23)Oc2ncc(Br)cc2C1=O
-8.9,2.0[16.7 µM],C/C=C/c1ccc2c(c1)O[C@H](CN(C)C(=O)COC)[C@@H](C)CN([C@H](C)CO)S2(=O)=O
-8.1,2.5[16.7 µM],C[C@@H]1CCCCO[C@@H](CN(C)C(=O)Nc2ccccc2)[C@@H](C)CN([C@@H](C)CO)C(=O)c2cc(NC(=O)C3CCCCC3)ccc2O1
